Sa helicase inh: S. aureus DNA helicase inhibition; purified S. aureus helicase, fluorescence unwinding assay; about half of the hits fall short of the stated cut; inhibition, %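 (tested at about 80 µM)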; 120,000 compounds, 0.05% hits; AID 485395;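 active means both duplicates at 50% or more, or one of them with a favoured structure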;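 further: 0% = mean of negative control wells and 100% = mean of positive control wells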
MgrA DNA FP: alters Staphylococcus aureus MgrA binding to DNA. 84,000 compounds, 0.13% hits. inhibition, %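 (about 10 µg/mL by stock and volumes)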. AID 602314. fluorescence polarization;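 active means above 50% in either of two replicates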;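 further: 0% = protein plus DNA without compound and 100% = DNA alone without protein; higher means less MgrA bound to DNA so lower polarization; one replicate is shown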
Numbers without * were called inactive; / = no result given. This is a subset; count on the stated rates, not on these rows.

canonical_smiles,Sa helicase inh,MgrA DNA FP
CCC(Oc1ccc2c(c1)oc(=O)c1ccccc12)C(=O)OC (stereo unspecified),11,/
CCCc1cc(=O)n(CC(=O)Nc2ccccc2)c(-n2nc(C)cc2C)n1,1,/
CC(C)(C)Oc1ccc(C(=O)N(Cc2ccc(F)cc2)C2CCOC(C)(C)C2)cc1 (stereo unspecified),-8,-0.2
O=C(CSc1nnc(CCCN2C(=O)c3cccc4cccc(c34)C2=O)n1-c1ccccc1)NCCCN1CCOCC1,/,-1.4
O=C(CN1C(=O)COc2ccccc21)N(CC1CCCO1)c1nc2ccccc2s1 (stereo unspecified),-3,/
CCCCNC(=O)CC1Sc2ccccc2NC1=O (stereo unspecified),4,/
COc1cccc(NC(=O)c2ccc(COc3ccc(Cl)cc3)o2)c1,-19,/
COc1ccc2cc3cc(C(=O)N(C)c4cc(C)ccc4C)oc3nc2c1,-12,/
Cc1cc(C(F)(F)F)nc2c(Cl)c(C3CC3)nn12,/,-0.3
CCOC(=O)c1c(-c2ccccc2)c[nH]c1N,/,11
COc1ccc(OC)c(C2SCCN2C(=O)c2cc3ccccc3oc2=O)c1 (stereo unspecified),14,/
Cc1cc(C)c(C#N)c(SCC(=O)Nc2nsc(-c3ccc(Cl)cc3)n2)n1,11,0.7
C=CCNC(=S)N1CCc2cc(OC)c(OC)cc2C1,12,3.4
CC(C)CCNC(=O)c1ccc2c(Cl)c3c(nc2c1)CCCC3,14,2.2
Cc1cccc(C)c1N1CCN(Cc2ccc(Cl)nc2)CC1,/,0.5
CCN1CC2=C(OC(N)=C(C#N)C2c2ccc(OC)cc2)/C(=C\c2ccc(OC)cc2)C1 (stereo unspecified),9,/
COC(=O)c1ccc(C(=O)Nc2cccc3c(OC)cccc23)cc1,26,/
COC(=O)c1ccccc1NC(=O)n1ncc2c(C)cccc21,-2,-1.2
O=C(NCCCc1ccccc1)C1CCCN1c1nnc(N2CCCC2=O)s1 (stereo unspecified),27,/
CCN(CC)C(=O)CSc1nnc(COc2ccc(C)cc2)n1N,9,3.6
O=C(Nc1ccc2nn(-c3ccccc3)nc2c1)C(c1ccccc1)c1ccccc1,-12,1.0
O=C(OCCN1C(=O)c2cccc3c(N4CCCCC4)ccc(c23)C1=O)c1ccccc1[N+](=O)[O-],/,2.5
CCc1ccc(NC(=O)Cn2nc(CC)n3c(cc4sccc43)c2=O)cc1,-2,/
CC1Cc2ccccc2N1C(=O)Cn1c(-c2cccnc2)ccc(C#N)c1=O (stereo unspecified),5,-2.8
O=C(Nc1ccc(Cl)cc1)c1ccc2snnc2c1,/,-0.8
CCc1ccc(NC(=O)C(C)Sc2ccc(S(=O)(=O)N3CCN(C)CC3)cn2)cc1 (stereo unspecified),20,/
CCN(CC)S(=O)(=O)c1ccc(C(=O)N2N=C3/C(=C/c4cccs4)CCCC3C2c2cccs2)cc1 (stereo unspecified),-11,/
CS(=O)(=O)N1CCC(c2nc3ccccc3[nH]2)CC1,-18,/
Cc1ccc(NC(=O)CN(C)Cc2cc(=O)n3ccsc3n2)cc1,4,/
COC(=O)c1sc(N)c(C(=O)OC)c1CSc1nnc(C(F)(F)F)n1C,13,/
CCCCS(=O)(=O)Nc1cccc(O)c1,-15,/
CCn1c(NNS(=O)(=O)c2ccccc2F)nc2ccccc2c1=O,15,/
COc1ccc(Br)cc1S(=O)(=O)n1ccnc1C(C)C,-7,/
N#Cc1ccc(C2NC(=O)c3ccccc3N2)cc1 (stereo unspecified),2,/
Cc1cc(=O)n2[nH]cc(C#N)c2n1,/,0.5
N#CCSc1nc(-c2ccccc2)cs1,2,1.8
OC1CCCCC1NCCNc1nccc(C(F)(F)F)n1 (stereo unspecified),/,3.1
Nc1n[nH]c2c1CSc1ccc(Cl)cc1-2,5,/
NC(=O)c1cc(S(=O)(=O)N2CCCC2)ccc1OCc1ccc(F)cc1,12,/
COc1ccc2c(CSc3nnc(Nc4ccccc4OC)s3)cc(=O)oc2c1,-8,/
CCc1ccc(N=C2N=C(N)c3ccccc32)cc1,9,0.4
COc1ccc(-c2nnc(SC(C)c3nc4ccccc4c(=O)[nH]3)n2CC2CCCO2)cc1 (stereo unspecified),5,/
Cc1onc(-c2ccccc2Cl)c1C(=O)N1CCCCC1C(=O)O (stereo unspecified),14,/
COCCN1C(=O)CS/C1=C(/C#N)C(=O)NCCc1ccccc1,-18,/
Cc1ccc(C)n1-c1ccc(C(=O)N(C)CCCc2[nH]nc(N)c2C#N)cc1,13,/
O=[N+]([O-])c1ccc(Oc2cc(S(=O)(=O)c3ccccc3)ccc2[N+](=O)[O-])nc1,/,-2.6
O=C(Nc1ccccc1)Nc1ccc2c(c1)C(=O)OC2,-5,0.4
Fc1ccccc1CNC1CCCC1,7,0.0
O=C(OCc1nc2ccccc2s1)C12CC3CC(CC(O)(C3)C1)C2,6,/
CC(C)(C)c1ccc(NC(=O)c2ccsc2)cc1,/,0.5
O=C1CCCC2=C1C(c1ccccc1)c1c([nH]n(-c3ccccc3)c1=O)N2 (stereo unspecified),10,/
O=C(Nn1c(SCc2ccc(F)cc2)nc2ccsc2c1=O)c1ccccc1,7,-1.2
O=C(CSc1nnc(-c2cccs2)o1)Nc1ccc2c(c1)OC1(CCCCC1)O2,1,/
Cc1cc(C(=O)COc2ccc3oc4c(c3c2)CCCC4)c(C)n1Cc1cccs1,13,/
COC(=O)C1CCCCCC1=O (stereo unspecified),-27,2.7
CC1(C)CC(NC(=S)Nc2ccc(S(N)(=O)=O)cc2)CC(C)(C)N1,0,2.9
O=c1c2ccccc2nnn1CSc1nc2cc(Cl)ccc2s1,6,/
CC1CCc2c(sc3ncnc(Oc4ccccc4F)c23)C1 (stereo unspecified),9,-3.1
Cc1cc(=O)oc2cc(OCC(=O)NCc3ccco3)ccc12,5,-1.8
O=C1CSC(c2ccc(Cl)c(Cl)c2)N1c1ccc(F)cc1 (stereo unspecified),/,3.5

(next part)
canonical_smiles	Sa helicase inh	MgrA DNA FP
COc1ccc(OCc2c(C#N)c3ccccc3n2C)cc1	-1	-1.4
O=C(NCc1ccccn1)c1ccc(NC2=NC3CS(=O)(=O)CC3S2)cc1 (stereo unspecified)	10	/
CC(C)CCNS(=O)(=O)c1ccc(Cl)c(Cl)c1	16	-1.1
CCC1CCCCN1S(=O)(=O)c1ccc(NC(=O)COc2ccc(OC)cc2)cc1 (stereo unspecified)	15	2.1
O=C(Nc1ccc(-c2ccccc2)cc1)C1CC1c1ccccc1 (stereo unspecified)	8	-1.1
CCCNC(=O)c1ccc2c(c1)ncn2-c1cccc(Cl)c1	5	/
O=C(Cc1ccc(F)cc1)NC1CCSC1=O (stereo unspecified)	12	4.2
O=c1[nH]c2c(s1)C(c1ccccc1)C1C3CCC(C3)C1S2 (stereo unspecified)	12	/
CC(Nc1ncnc2nc[nH]c12)c1ccccc1 (stereo unspecified)	10	/
CCC(C)(C)n1nnnc1CN(Cc1ccc(Cl)cc1)CC1CCCO1 (stereo unspecified)	-7	-0.6
O=C1Nc2ccccc2/C1=C/c1ccc(N2CCOCC2)cc1	16	3.5
CN(C)c1nc(OCCOC(=O)c2ccccc2)nc(N(C)C)n1	/	-0.5
CC1CC(=O)Nc2ccccc2N1S(=O)(=O)c1ccc(F)cc1F (stereo unspecified)	/	-1.2
Clc1ccc(CNc2nc3ccccc3[nH]2)cc1Cl	10	0.9
Cc1cc(C)nc(/N=C2\NC(=O)CC(C(=O)O)N2c2cccc(Cl)c2)n1 (stereo unspecified)	-1	-3.7

4 neighbouring records already listed:
canonical_smiles	Sa helicase inh	MgrA DNA FP
COC(=O)c1ccccc1NC(=O)n1ncc2c(C)cccc21	-2	-1.2
O=C(NCCCc1ccccc1)C1CCCN1c1nnc(N2CCCC2=O)s1 (stereo unspecified)	27	/
CCN(CC)C(=O)CSc1nnc(COc2ccc(C)cc2)n1N	9	3.6
O=C(Nc1ccc2nn(-c3ccccc3)nc2c1)C(c1ccccc1)c1ccccc1	-12	1.0

(list continues)
canonical_smiles	Sa helicase inh	MgrA DNA FP
CCOc1ccccc1NC(=O)CC1SC(N)=NC1=O (stereo unspecified)	18	/
Cc1ccc(Nc2cc(C(=O)NCCC(C)C)c3ccccc3n2)cc1C	-19	1.5
O=C(CSC1=NS(=O)(=O)c2ccccc21)Nc1ccccc1	15	/
Cc1cc(C)c(NC(=O)C(C)OC(=O)C2CCCCC2)c(C)c1 (stereo unspecified)	17	/
CC1CN(C(=O)CSc2nnc(-c3cccs3)n2N)CC(C)O1 (stereo unspecified)	11	/
CC(=O)Nc1nc2ccc(NC(=O)c3c([N+](=O)[O-])cnn3C)cc2s1	/	0.9
CCNc1nc(NCC)nc(OCC#N)n1	8	-2.0
CCOC(=O)c1c(CNCCN(CC)CC)n(C)c2cc(Br)c(OC)cc12	/	-2.7
O=c1[nH]oc2nc(C3CC3)cc(C(F)(F)F)c12	13	15
Cc1ccc2ncnc(NC(CC(C)C)C(=O)O)c2c1 (stereo unspecified)	4	/
Cc1ccc(OCCn2c(=O)oc3ccccc32)cc1	6	/
CC12CCC(C1)C(C)(C)C2NS(=O)(=O)c1cc(Cl)c(Cl)cc1Cl (stereo unspecified)	/	-2.1
O=C(NCc1ccccc1Cl)C1CCCN(c2ncnc3c2nc2n3CCCCC2)C1 (stereo unspecified)	-8	-0.2
NC(=S)N/N=C/c1ccc2c(c1)OCO2	/	-0.8
Cc1noc(NS(=O)(=O)c2ccc(NC(=O)CSc3nc4c(cc3C#N)CCC4)cc2)c1C	4	/

Whole records, quoted from the list. Screens in order: Sa helicase inh, MgrA DNA FP
Entry for O=C(CSC1=NS(=O)(=O)c2ccccc21)Nc1ccccc1 → 15, /
Entry for CC(=O)Nc1nc2ccc(NC(=O)c3c([N+](=O)[O-])cnn3C)cc2s1 → /, 0.9
Entry for Cc1ccc(Nc2cc(C(=O)NCCC(C)C)c3ccccc3n2)cc1C → -19, 1.5

The results go on:
canonical_smiles	Sa helicase inh	MgrA DNA FP
CCOc1ccc(C(=O)NCC(=O)N2CCN(Cc3ccccc3)CC2)cc1	-5	-1.6
Cc1cc(=O)[nH]c(O)c1C#N	2	/
CCOC(=O)C1=C(C)N=c2s/c(=C/c3ccc(C)cc3)c(=O)n2C1c1ccc(OC(C)=O)c(OC)c1 (stereo unspecified)	/	1.9
CC1CN(Cc2cc(=O)n3c(-c4ccccc4)csc3n2)CC(C)O1 (stereo unspecified)	-27	/
O=C(O)c1ccc(-c2ccccc2)s1	-15	0.9
O=c1oc(Nc2ccccc2)nc2ccccc12	/	2.1
CCc1nn(C(=O)c2ccccc2)c2c1C(=O)CC(C)(C)C2	-2	-1.6
CC1=[N+]([O-])C(C)(C)C(c2ccc(C)cc2)=[N+]1[O-]	-3	/
Cc1ccc(S(=O)(=O)N2CCN(C(=O)c3cc(=O)[nH]c4ccccc34)CC2)c(C)c1	1	/
O=C(O)CC(CC(=O)NCCc1c[nH]c2ccccc12)c1ccc(C(F)(F)F)cc1 (stereo unspecified)	/	-1.0
COc1ccc(OCCn2c(NC(=O)c3ccco3)nc3ccccc32)cc1	1	/
CCC(C)N(C(=O)CSc1nc2ccccc2n1-c1ccc(C)cc1)C1CCS(=O)(=O)C1 (stereo unspecified)	9	/
S=c1[nH]nc(/N=C/c2ccc(Br)cc2)n1Cc1ccccc1	5	/
O=C(Nc1ccc(S(=O)(=O)N2CCCCCC2)cc1)c1ccncc1	5	-1.9
Cc1cccc(N2C(=O)C(Oc3ccc(Cl)cc3Cl)C2C(=O)O)c1C (stereo unspecified)	12	/
Clc1ccc(C=NC23CN4CN(CN(C4)C2)C3)cc1	-6	5.7
O=C(O)CCC(=O)Nc1cccnc1	/	0.0
CCn1c(-c2ccc(OC)cc2)nc2ccccc21	13	-0.3
CC1Cc2ccccc2N1C(=O)CSC1=C(C#N)C(c2ccccc2F)CC(=O)N1 (stereo unspecified)	-2	/
O=C(O)COCC(=O)Nc1cccnc1	/	-1.0
CC(NC(=O)c1ccccc1N)c1ccccc1 (stereo unspecified)	/	-2.3

Reformatted field by field: 4 of the compounds above.
Structure: CCn1c(-c2ccc(OC)cc2)nc2ccccc21
  Sa helicase inh: 13	MgrA DNA FP: -0.3

Structure: CC1Cc2ccccc2N1C(=O)CSC1=C(C#N)C(c2ccccc2F)CC(=O)N1 (stereo unspecified)
  Sa helicase inh: -2	MgrA DNA FP: /

Structure: O=C(O)COCC(=O)Nc1cccnc1
  Sa helicase inh: /	MgrA DNA FP: -1.0

Structure: CC(NC(=O)c1ccccc1N)c1ccccc1 (stereo unspecified)
  Sa helicase inh: /	MgrA DNA FP: -2.3

Source: PubChem (ICCB-Longwood Screening Facility, Harvard Medical School)
